# Hep lipid drop – modulators of hepatic lipid droplet formation; AML12 mouse hepatocytes, oleate lipid droplets, BODIPY imaging; inhibition, % at 6.5 µM; 0.4% of 240,000 active;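 active = lipid droplet intensity inhibited by at least 50%, with more than 500 cells counted; inconclusive = wells with under 300 cells, treated as cytotoxic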
#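 Test system: AML12 mouse liver cells; schedule: overnight exposure; technique: high-content imaging of BODIPY-stained droplets and DAPI nuclei; read-out: % inhibition of corrected integrated BODIPY droplet signal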
# Autophagy mod – modulators of autophagy. AID 463193. MEF GFP-LC3 puncta imaging; test concentration mostly 10 µM. 0.98% of 190,000 active. calls only at 10 µM (by protocol);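 active = percentage of spot-positive cells more than 3 SD above its plate mean, without a fluorescence outlier flag or 80% toxicity; inconclusive = no clear call, values can overlap the other calls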;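 note: spot-positive cell cutoff set from DMSO-treated cells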
# Salmonella PhoP GFP – inhibitors of PhoP regulon expression, primary screen, Salmonella Typhimurium, GFP reporter (AID 1863); inhibition, % at 50 µM, or IC50 in µM where a hit was titrated; S. Typhimurium PhoP-regulated promoter GFP reporter, 4 h; higher % means a stronger effect; 0.16% of 300,000 active;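 active = inhibition over 29.93%, a cutoff 3 SD above the screen mean, later confirmed by dose response; inconclusive = inhibition over 29.93% but no dose response follow-up; inactive = inhibition at most 29.93% or unconfirmed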;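 note: 0% = low Mg2+ inducing control and 100% = high Mg2+ repressing control; strong numbers were not always called active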
# CSM14.1 death rescue – rescue of cells from ER stress-induced death, primary screen, 384-well, CSM14.1, thapsigargin, ATP luminescence (AID 1222) | one-dose cellular ATP content (survival), % at 20 µM; EC50 in µM for titrated hits | 190,000 tested, under 10 active | CSM14.1 thapsigargin-induced death rescue, ATP luminescence; higher % means a stronger effect;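 active = EC50 below 50 µM in the dose-response confirmation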;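 note: death triggered by thapsigargin at about 15 µM added after 2 h compound pretreatment; cell ATP read after overnight thapsigargin exposure of roughly 18 to 22 hours; normalized against plate controls of thapsigargin alone and 5% DMSO vehicle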
# Insulin prom up – MIN6 insulin promoter up-regulation. z-score at 5 µM. 0.3% of 190,000 active. AID 1625. MIN6 insulin promoter-GFP reporter, high-content imaging; active compounds read high;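 active = z-score above 3 at 5 µM with at least 500 cells counted in the well; inconclusive = wells under 500 cells, flagged as cytotoxic or low count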
# Dynein transport – dynein cargo transport inhibition. 3617.4 mouse cells, GR-EGFP nuclear translocation imaging; test concentration mostly 20 µM; stimulated with dexamethasone, 1 µM; active compounds read low. z-score, hits read low. 0.47% of 220,000 active. AID 1381;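 active = plate z-score of nuclear minus cytoplasmic receptor signal below a set negative limit, without overly bright fluorescence or cell loss, cut at about -3.5 in these data, passing the limit was not always enough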;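 note: z-score of nuclear minus cytoplasmic ring GR-EGFP intensity difference per well; some compounds called inactive have numbers as strong as hits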
#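 medium = tetracycline-free induction medium containing charcoal-stripped FBS | also added = 1.0 µM final dexamethasone stimulus | schedule = 48 h induction, 1 h compound, 30 min dex at 37 °C | technique = fixed, Hoechst-stained cells imaged at 10x for EGFP | measure = GR-EGFP nuclear translocation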
# T cell HTS – T cell immune modulation candidate | 2C CD8+ T cell-vesicle binding, flow cytometry; active compounds read low | calls only at 7 µM | 0.068% of 330,000 active | AID 2052;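 active = response, share of CD8 T cells binding vesicles, and their 90th percentile fluorescence all below set limits, cut at about 80% in these data, passing the limit was not always enough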
#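 Also added: QL9-peptide-loaded Drosophila micro-vesicles bearing Ld, ICAM-1 and B7-1; Test system: purified 2C TCR transgenic mouse naive CD8+ T cells; Measured by: cytometric PE anti-B7-1 and Alexa647 anti-CD8 signals after 1% paraformaldehyde fixation; Timing: binding step 1.5 h, 37 °C, antibody labelling 20 min, ice.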
# MT stabilize HCS – stabilizes microtubules in HeLa cells; HeLa tubulin immunostaining HCS, 24 h; share of cells brighter than vehicle mean+2SD; % tubulin-high responders, % at 10 µM; 0.83% of 200,000 active; AID 2205;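 active = plate Z-score above 3 for both tubulin-high and condensed-nucleus cell shares, with cell loss under 80%, at 10 µM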;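 note: anti alpha tubulin signal scored within the nucleus-defined area of each cell; some results filed as inactive read as strong as hits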
# Dynein transport cytoplasmic EGFP – further read-out of Dynein transport, marked with its call; z-score; measured here: cytoplasmic GR-EGFP intensity; active compounds read high
# Dynein transport nuclear GR-EGFP – further read-out of Dynein transport, marked with its call; z-score; measured here: nuclear GR-EGFP intensity;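 lower value marks the stronger effect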
# Dynein transport cell count – further read-out of Dynein transport, marked with its call; z-score; measured here: cell count per field
# Insulin prom up cell count – second read-out of Insulin prom up, no call of its own (marks repeat the call); cell count; measured here: cytotoxicity, nuclei count;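 total cells summed across four imaged fields per well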
# Hep lipid drop cells 6.5 µM – recorded beside Hep lipid drop, whose call it bears; cell count; measured here: cell count, cytotoxicity flag;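 cells counted across two imaged fields per well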
# T cell HTS vesicle-bound % – second read-out of T cell HTS, no call of its own (marks repeat the call); double positive events, %; measured here: CD8+ vesicle-bound cell fraction;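 binding gate set so that unloaded-vesicle control wells show 10% double positive cells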
# MT stabilize HCS Hoechst-high % – also measured in MT stabilize HCS; calls as there; % Hoechst-high responders; measured here: nuclear condensation Hoechst responders;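 share of cells brighter than vehicle mean plus two SD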
# MT stabilize HCS cytotoxicity % – also measured in MT stabilize HCS; calls as there; toxicity, %; measured here: cytotoxicity by cell density;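 0% = mean cell density of plate MIN control wells and 100% = no cells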
# Autophagy mod cell loss 18 h – further read-out of Autophagy mod, marked with its call; toxicity, %; measured here: cell loss, nuclei count;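 cell loss after 18 h compound exposure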
# * hit, by the source's call; i = inactive; u = inconclusive; x = not tested or not shown; + = active, no number.
SMILES,Hep lipid drop,Autophagy mod,Autophagy mod cell loss 18 h,Salmonella PhoP GFP,CSM14.1 death rescue,Insulin prom up,Insulin prom up cell count,Dynein transport,Dynein transport cytoplasmic EGFP,Dynein transport nuclear GR-EGFP,Dynein transport cell count,T cell HTS,T cell HTS vesicle-bound %,MT stabilize HCS,MT stabilize HCS Hoechst-high %,MT stabilize HCS cytotoxicity %,others
CC(C)CC(=O)NC1(C(F)(F)F)C(=O)N(Cc2ccccc2)C2=C1C(=O)CC(C)(C)C2 (centres undefined),x,i,1.6,-2.9%,-1.1%,-0.99,1519,-0.25,-0.243,-0.969,0.471,i,26.7,3.1,2.1,5.6,
CCOc1ccc(OC(=O)NC(c2ccccc2)C(Cl)(Cl)Cl)cc1 (centres undefined),x,i,8.1,5.8%,-0.9%,1.4,1481,-1.17,1.61,-0.335,0.41,i,12.6,1.0,1.3,7.7,
Cc1cc(C)n(S(=O)(=O)Cc2ccccc2)n1,x,i,-0.3,0.7%,-2.8%,-0.99,1581,0.247,-0.12,0.682,-1.25,i,49.0,5.9,2.6,9.7,
CCN(CC)S(=O)(=O)c1ccc2c(c1)nc(SCC(=O)N1CCOCC1)n2-c1ccccc1OC,x,i,1.8,11.7%,-0.1%,0.47,1495,-0.00743,0.029,0.197,-0.149,i,16.5,0.5,1.2,8.8,
COc1ccccc1Oc1ccc2c(c1)C(=O)N(c1ccc(C)cc1)C2=O,x,i,9.2,2.2%,-0.6%,0.43,1512,-0.0511,-0.124,0.531,0.965,i,47.1,2.6,1.8,7.5,
CC(C)C(NC(=O)c1ccc2c(c1)OCO2)C(=O)N/N=C\c1ccco1 (centres undefined),x,i,18.4,0.1%,-1.1%,0.65,1665,-0.916,-0.19,0.0963,1.13,i,12.6,1.9,1.1,3.4,
Nc1n[nH]c(-c2ccccc2)n1,x,i,-8.1,-2.5%,-0.3%,0.23,1510,-0.0349,-0.211,-0.792,-0.011,i,35.6,3.2,1.7,1.0,
COc1cc(NC(=O)CSc2ncnc3c2cnn3Cc2ccccc2)cc(OC)c1,-10.5,i,-4.8,1.8%,2.0%,0.3,836,-0.00302,0.346,0.149,0.408,i,47.7,1.4,1.3,0.9,Hep lipid drop cells 6.5 µM=744
CCCC(=O)N1CCN(c2ccc(NC(=O)C(C)(C)C)cc2)CC1,x,i,-6.0,-3.0%,0.6%,-1.13,1441,-0.335,-0.126,-0.694,-0.209,i,15.1,2.7,2.0,10.9,
N#Cc1c(Cl)nc(SCc2ccccc2)nc1-c1ccccc1,x,i,0.6,-8.9%,-1.8%,-0.97,1184,-0.141,0.104,-0.222,0.595,i,49.3,2.7,1.9,3.7,
COc1ccccc1-c1c(C)oc2c(CN3CCN(CCO)CC3)c(O)ccc2c1=O,x,i,45.1,-1.8%,2.0%,-0.34,1555,0.0493,-0.171,0.00787,0.224,x,x,2.7,2.4,12.6,
O=c1c2cc(Br)ccc2nc(-c2cccc(C(F)(F)F)c2)n1O,x,i,-12.0,-1.2%,0.2%,-0.47,1690,-1.04,2.99,0.879,-7.08,i,27.0,3.5,2.9,5.6,
COc1ccc(C2N=C(N)N=C(N)N2c2ccccc2OC)cc1OC (centres undefined),x,i,2.9,13.7%,1.1%,-0.83,1659,-0.922,-0.232,-1.01,1.13,i,13.4,2.4,2.3,5.2,
O=C(COc1ccc(Cl)cc1)Nc1ccccc1CO,x,i,-6.4,6.0%,-1.3%,0.59,1540,0.47,-0.3,0.871,-0.337,i,41.5,3.3,1.2,6.4,
COc1ccc(NC(=O)[C@H](COCc2ccccc2)NC(=O)OC(C)(C)C)cc1,x,i,14.5,5.8%,0.4%,-0.34,1459,0.3,0.0126,0.895,-0.849,i,25.7,3.6,1.7,9.7,
Cc1cccc(Cc2c(C)nc3nc(SCC(=O)NCc4ccco4)nn3c2C)c1,x,i,-1.2,-3.5%,2.3%,-0.2,1558,-0.7,-0.0909,-0.29,0.35,i,6.7,20.5*,10.6*,16.1*,
c1ccc(-n2cnc3cc(NCc4cccs4)ccc32)cc1,x,i,15.4,0.2%,-0.7%,-0.23,1332,1.33,-0.104,0.648,-1.09,i,34.0,40.9*,18.4*,37.4*,
O=C(CCn1nc(-c2ccccc2)ccc1=O)NCCCN1CCCCCC1,x,i,5.5,-14.0%,-0.3%,-1.87,1362,0.12,0.0485,-0.0422,0.435,i,54.5,3.5,2.5,13.5,
CCC(C)(C)n1nnnc1C(C(C)C)N(CCCO)Cc1cc2cc(C)ccc2[nH]c1=O (centres undefined),x,i,0.7,4.8%,-1.5%,-2.03,1199,0.903,-0.285,0.244,-1.05,i,0.7,5.9,4.4,9.1,
COc1ccc(C(=O)N/C(=C\c2cccs2)c2nc3ccccc3[nH]2)cc1OC,x,i,-29.3,-0.3%,1.7%,x,x,0.632,-0.219,0.585,0.464,i,11.5,2.2,1.4,10.6,

# Three structures already listed, ordered by count of non-hydrogen atoms, falling:
SMILES,Hep lipid drop,Autophagy mod,Autophagy mod cell loss 18 h,Salmonella PhoP GFP,CSM14.1 death rescue,Insulin prom up,Insulin prom up cell count,Dynein transport,Dynein transport cytoplasmic EGFP,Dynein transport nuclear GR-EGFP,Dynein transport cell count,T cell HTS,T cell HTS vesicle-bound %,MT stabilize HCS,MT stabilize HCS Hoechst-high %,MT stabilize HCS cytotoxicity %,others
CC(C)CC(=O)NC1(C(F)(F)F)C(=O)N(Cc2ccccc2)C2=C1C(=O)CC(C)(C)C2 (centres undefined),x,i,1.6,-2.9%,-1.1%,-0.99,1519,-0.25,-0.243,-0.969,0.471,i,26.7,3.1,2.1,5.6,
O=C(CCn1nc(-c2ccccc2)ccc1=O)NCCCN1CCCCCC1,x,i,5.5,-14.0%,-0.3%,-1.87,1362,0.12,0.0485,-0.0422,0.435,i,54.5,3.5,2.5,13.5,
O=c1c2cc(Br)ccc2nc(-c2cccc(C(F)(F)F)c2)n1O,x,i,-12.0,-1.2%,0.2%,-0.47,1690,-1.04,2.99,0.879,-7.08,i,27.0,3.5,2.9,5.6,

# (continued)
SMILES,Hep lipid drop,Autophagy mod,Autophagy mod cell loss 18 h,Salmonella PhoP GFP,CSM14.1 death rescue,Insulin prom up,Insulin prom up cell count,Dynein transport,Dynein transport cytoplasmic EGFP,Dynein transport nuclear GR-EGFP,Dynein transport cell count,T cell HTS,T cell HTS vesicle-bound %,MT stabilize HCS,MT stabilize HCS Hoechst-high %,MT stabilize HCS cytotoxicity %,others
CC(=O)Nc1cccc(NC(=O)CSc2nnc(Cc3cccn3C)n2-c2ccc(F)cc2)c1,-8.9,i,8.3,-0.5%,-1.7%,0.11,1699,-0.0511,-0.337,-0.242,0.579,i,53.5,5.3,2.3,5.2,Hep lipid drop cells 6.5 µM=668
CN1c2cccc3cccc(c23)N(C)C1c1cccs1,x,i,-3.4,8.0%,-1.6%,0.22,1237,-1.7,-0.189,-0.853,-3.47,i,11.1,1.6,1.7,11.6,
CCSc1nnc(NC(=O)CSc2nnc(Cc3cccn3C)n2-c2ccc(C)cc2)s1,-4.1,i,0.3,12.7%,-0.4%,0.18,1249,0.575,-0.0782,0.176,0.176,i,57.0,4.1,3.0,6.0,Hep lipid drop cells 6.5 µM=699
CC1CCN(CC(C)CNC(=O)c2cc(-c3ccccn3)nc3ccccc23)CC1 (centres undefined),x,i,-2.1,8.9%,-1.0%,-0.28,1096,-0.089,-0.225,-0.218,0.231,i,55.2,2.1,2.1,4.3,
Cc1ccccc1Oc1ccc(-c2nc(N)nc(N)n2)cc1,x,i,-1.0,20.5%,-1.2%,-0.34,1628,0.504,-0.218,-0.659,1.26,i,7.2,2.7,1.8,8.2,
COc1ccc(CCNc2c(C)c(C)nc3ncnn23)cc1,x,i,18.5,-6.7%,-0.6%,u,x,-1.12,-0.4,-0.461,-0.529,i,50.3,30.0*,16.0*,65.5*,
CN1C(=O)CC(Sc2ccccc2C(=O)O)C1=O (centres undefined),x,i,-2.4,-6.3%,-1.1%,-0.33,1620,0.241,-0.186,-0.747,1.16,i,11.9,1.9,2.1,3.5,
COc1ccc(NC(=O)c2cc3sccc3n2Cc2ccc(F)cc2)cc1OC,x,i,-6.4,6.6%,-6.4%,-0.86,1585,-0.329,-0.238,-0.952,0.289,i,7.4,3.4,2.8,7.2,
CC(=O)Nc1c(S(=O)(=O)c2ccccc2)c2nc3ccccc3nc2n1Cc1ccccc1,x,i,3.3,-12.9%,-2.7%,-0.35,1529,0.236,-0.186,0.324,0.159,i,44.1,1.1,1.7,6.3,
Cc1ccc(OCC(=O)Nc2ccc(Cl)cc2)c(-n2nc3ccccc3n2)c1,x,+,-10.3*,3.9%,-0.9%,-0.88,1360,0.115,-0.206,-0.273,0.127,i,64.3,4.8,2.5,4.5,

# Already shown: an excerpt of the list.
SMILES,Hep lipid drop,Autophagy mod,Autophagy mod cell loss 18 h,Salmonella PhoP GFP,CSM14.1 death rescue,Insulin prom up,Insulin prom up cell count,Dynein transport,Dynein transport cytoplasmic EGFP,Dynein transport nuclear GR-EGFP,Dynein transport cell count,T cell HTS,T cell HTS vesicle-bound %,MT stabilize HCS,MT stabilize HCS Hoechst-high %,MT stabilize HCS cytotoxicity %,others
CC(=O)Nc1c(S(=O)(=O)c2ccccc2)c2nc3ccccc3nc2n1Cc1ccccc1,x,i,3.3,-12.9%,-2.7%,-0.35,1529,0.236,-0.186,0.324,0.159,i,44.1,1.1,1.7,6.3,
Cc1ccc(OCC(=O)Nc2ccc(Cl)cc2)c(-n2nc3ccccc3n2)c1,x,+,-10.3*,3.9%,-0.9%,-0.88,1360,0.115,-0.206,-0.273,0.127,i,64.3,4.8,2.5,4.5,

# This is a subset; count on the stated rates, not on these rows.
